Source: PubChem BioAssay (several laboratories)
HSV augment: HSV replication enhancement; maximum fold increase; 220,000 tested, 0.005% active; AID 1956; HSV replication augmentation in cells, fold increase;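 active = peak rise of 1.5-fold or more in the series; tested in PC3 cells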;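 note: first round at 10 µM; read as green reporter fluorescence; hits show the peak of a series up to 25 µM; 1 = signal of infected wells without compound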
Insulin prom inh: TRM-6 insulin promoter activity inhibition; TRM-6 cells (human fetal islet line), insulin promoter-eGFP reporter, imaging; reporter expression induced with tamoxifen; inhibition, % at 2 µM; 130,000 tested, 0.9% active;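 active = inhibition above the mean plus 3 SD, with well images judged a real hit on visual review, cut at about 60% in these data, passing the limit was not always enough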
PKD1 inh: PKD1 (human) kinase inhibition. inhibition, %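 (about 10 µM by stock and volumes)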. PKD1 kinase fluorescence polarization assay. 200,000 tested, 0.056% active;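 active = inhibition of 50% or more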;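 note: controls were vehicle for no effect and a reference inhibitor for full effect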
Target sequence (Q15139 whole entry, looked up): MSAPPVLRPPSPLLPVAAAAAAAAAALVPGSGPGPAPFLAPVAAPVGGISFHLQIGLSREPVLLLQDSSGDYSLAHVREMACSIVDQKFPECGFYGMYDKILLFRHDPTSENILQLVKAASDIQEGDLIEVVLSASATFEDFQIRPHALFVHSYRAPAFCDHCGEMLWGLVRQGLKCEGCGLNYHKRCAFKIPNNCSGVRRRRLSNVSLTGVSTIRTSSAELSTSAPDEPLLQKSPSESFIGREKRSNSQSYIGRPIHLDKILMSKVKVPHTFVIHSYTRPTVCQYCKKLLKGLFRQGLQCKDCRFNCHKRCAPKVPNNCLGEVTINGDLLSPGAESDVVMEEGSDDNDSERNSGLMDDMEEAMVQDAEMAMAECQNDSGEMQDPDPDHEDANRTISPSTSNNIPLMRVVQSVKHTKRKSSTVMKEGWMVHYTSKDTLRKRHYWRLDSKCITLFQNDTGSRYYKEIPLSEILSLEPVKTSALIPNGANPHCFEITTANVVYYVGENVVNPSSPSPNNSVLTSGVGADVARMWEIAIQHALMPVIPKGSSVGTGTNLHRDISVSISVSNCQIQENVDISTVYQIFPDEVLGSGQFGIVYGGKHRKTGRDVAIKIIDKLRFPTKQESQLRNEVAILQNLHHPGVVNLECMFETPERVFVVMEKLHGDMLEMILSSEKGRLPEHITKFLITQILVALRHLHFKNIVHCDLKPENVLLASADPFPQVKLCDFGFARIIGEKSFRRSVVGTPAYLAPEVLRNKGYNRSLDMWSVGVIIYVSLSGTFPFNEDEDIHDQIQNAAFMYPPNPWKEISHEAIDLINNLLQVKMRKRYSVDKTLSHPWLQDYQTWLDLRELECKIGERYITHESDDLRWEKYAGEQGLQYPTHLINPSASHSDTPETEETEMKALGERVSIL
GALR2 agonist: activates the human galanin receptor 2; O43603; GALR2-expressing cells, agonist activation read-out; activation, %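 (tested at 5 µM)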; 140,000 tested, 0.48% active; AID 803;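 active = above mean plus 3 SD of all compounds, about 5% in these data, not always enough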;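 note: 0% = vehicle buffer wells and 100% = reference agonist at full effect; tested in CHO reporter cells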
RGS16-Gao HTS: regulators of human RGS16-Galphao interaction. O15492+P09471. bead-based flow cytometry RGS16-Galphao binding, fluorescence; actives lie on both sides. binding response (% of control), % at 10 µM. 220,000 tested, 0.38% active. AID 1441;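 active = below 25% or above 175%, edge rows of some plates excepted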;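 note: Galphao activated by GDP with aluminum fluoride before binding; 100% = wells without compound and 0% = beads without RGS; some results beyond the cut were filed as inactive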
Insulin prom inh cell count: second read-out of Insulin prom inh, no call of its own (marks repeat the call); normalized cell count, %; measured here: cell count, toxicity; reference of the scale not given here;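 cells exposed to compound for 48 h; stained nuclei by imaging scaled within each plate; lower means fewer cells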
HSV augment primary fold: second read-out of HSV augment, no call of its own (marks repeat the call); fold increase; compound at 10 µM; measured here: primary screen fold increase 10 uM; tested in PC3 cells;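 GFP signal in the first replicate; 1 = infected wells without compound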
Starred values were filed as active, the others as inactive; i = inactive; x = no result given.

smiles,HSV augment,HSV augment primary fold,Insulin prom inh,Insulin prom inh cell count,PKD1 inh,GALR2 agonist,RGS16-Gao HTS
O=C(O)c1ccc2c(c1)CCCN2,i,1,x,x,x,x,112
COc1ccc2cc(C3CC(c4ccco4)=NN3S(C)(=O)=O)c(Cl)nc2c1 (centres undefined),i,0.94,x,x,x,x,103
CCOC(=O)CC(NC(=O)Cc1ccc(F)cc1)c1ccccc1Cl (centres undefined),i,1,-69,83,0,-0.1,103
O=C(O)[C@H]1CCC(=O)N1Cc1ccco1,i,1,-4,72,3,-0.6,104
CN(C)c1nc(Oc2ccc(=O)[nH]n2)nc(N2CCCCC2)n1,i,0.86,56,153,-4,-3.1,80
Cc1ccc(C)c(OCC(=O)O/N=C(\N)c2cccc([N+](=O)[O-])c2)c1,i,0.87,x,x,x,x,100
Cc1c(N2C(=O)c3ccc(Br)cc3C2=O)c(=O)n(-c2ccccc2)n1C,i,0.95,32,38,4,-1.4,106
COC(=O)CC(NC(=O)c1ccc(C)cc1)c1ccccc1 (centres undefined),i,1.2,-21,110,6,-0.9,92
Cn1cc([N+](=O)[O-])c(C(=O)Nc2nccs2)n1,i,0.92,53,48,0,x,90
COC(=O)C1=C(C)C(c2cccs2)NC(=O)N1C (centres undefined),i,1.1,3,89,1,-0.4,73
COC(=O)N/N=C/c1cn(Cc2ccc(F)cc2)c2ccccc12,i,0.99,x,x,x,x,99
CCOC(=O)c1cc(=O)n(Cc2ccccc2C)c2ccccc12,i,0.64,-6,123,7,-0.8,83
C=CCn1c(SCC(=O)c2[nH]c(C)c(C(=O)OCC)c2C)nc2scc(-c3ccc(OC)cc3)c2c1=O,i,1,-180,26,-6,-1.1,105
Cc1ccc(S(=O)(=O)NCCN2CCOCC2)cc1C,i,0.86,x,x,-6,-1.6,110
Cc1ccc(C2SCC(=O)N2Cc2cn3ccsc3n2)o1 (centres undefined),i,1.1,x,x,1,-0.4,92
COC(=O)CCC/C=C1/SCC(NC(=O)c2ccccc2)C1=O (centres undefined),i,0.81,-32,134,-2,-1.5,92
COc1ccc(Nc2cc(C)c3ccc(O)cc3n2)cc1,i,0.86,x,x,x,x,83
CC(=O)Nc1ccccc1NS(=O)(=O)c1cccc([N+](=O)[O-])c1,i,0.95,x,x,-8,x,100
O=C(NCCCN1CCOCC1)c1cn(-c2ccccc2)nc1-c1cccs1,i,0.93,16,98,-5,-0.3,115
c1ccc(N2CC3CCc4ccccc4C3=N2)cc1 (centres undefined),i,0.94,x,x,x,x,101
Cc1occc1C(=O)N1CCN(C(c2ccccc2)c2ccccc2)CC1,i,0.97,-18,134,-5,0.6,94
CC(NC(=O)C(=O)N/N=C/c1ccccc1)c1ccccc1 (centres undefined),i,0.91,0,81,10,x,105
O=c1cc(-c2ccccc2)c2cc3c(cc2[nH]1)OCCO3,i,0.84,x,x,0,x,93
COc1ccc(OC)c(N2Cc3cc(C)c(C)cc3C2)c1,i,1,-5,94,-3,-1.6,99
Cc1c(C(=O)N2CCN(c3ccc(C(F)(F)F)cn3)CC2)oc2ccccc12,i,0.96,x,x,-4,-1.4,98
COCCCNC(=O)c1ccc(NS(C)(=O)=O)cc1,i,0.85,-40,99,-3,-1.4,98
Cc1oc2ccc(O)c(CN3CCOCC3)c2c1C(C)O (centres undefined),i,1.1,-48,126,-6,-3.2,154
Cc1ccc(S(=O)(=O)NC2=C(N3CCN(c4ccccc4F)CC3)C(=O)c3ccccc3C2=O)cc1,i,0.93,-3,121,-8,-1.2,105
O=C(Nc1ccccc1C(=O)NC(Cc1ccccc1)C(=O)NC1CCCCCC1)c1ccccc1 (centres undefined),i,0.83,-23,55,6,-3.8,100
CCOC(=O)N1CCN(C(=O)c2ccc(S(=O)(=O)NCc3ccco3)cc2)CC1,i,0.93,-21,117,0,x,106
Cc1ccc(NC(=O)c2cncc(Br)c2)c([N+](=O)[O-])c1,i,0.91,-10,150,5,-1.3,86
CC(C)[C@H](NC(=O)c1ccc(Cl)c([N+](=O)[O-])c1)C(=O)O,i,0.85,x,x,x,x,99
Cc1ccc2nc3c(c(C(=O)OCC(=O)NC4CCS(=O)(=O)C4)c2c1)CCCC3 (centres undefined),i,0.93,x,x,-9,x,99
O=C(NCc1ccccc1)c1ccc2c(c1)OCCO2,i,0.96,-70,125,-6,-1.0,162
NS(=O)(=O)c1cccc(NC(=O)COC(=O)CCSc2ccccc2)c1,i,0.86,-22,88,-6,-2.0,98
CC(C(=O)Nc1ccccc1C(=O)N1CCOCC1)N(c1ccc(Cl)cc1)S(C)(=O)=O (centres undefined),i,0.95,-289,61,-6,x,104
CCN(C(=O)CN1CCN(S(=O)(=O)c2ccccc2C(F)(F)F)CC1)c1c(N)n(Cc2ccccc2)c(=O)[nH]c1=O,i,0.99,-8,120,1,-2.0,106
CCC1(c2ccccc2)NC(=S)N(c2cccc(C)c2C)N1 (centres undefined),i,1,-18,94,4,-0.2,91
O=C(NCC1CCCO1)c1ccc(NC(=O)C2CC=CCC2C(=O)O)cc1 (centres undefined),i,0.9,3,117,-4,-0.5,103
Cc1cc(Cl)ccc1OCC(=O)NCCOc1nc(N2CCCCC2)nc(N2CCOCC2)n1,x,x,x,x,-8,-0.8,106
COc1cc(C(=O)NCc2nnc(SCC(=O)Nc3cc(C)on3)o2)cc(OC)c1OC,i,0.93,x,x,-4,x,99
O=S(=O)(c1ccc(N2CCOCC2)nc1)N(Cc1ccccn1)Cc1ccccn1,i,1.1,x,x,x,x,100
Cc1cc(-c2onc(C)c2C(=O)Nc2ccc(C(F)(F)F)cc2)no1,i,0.96,x,x,x,x,99
O=C(CSc1ncn[nH]1)CSc1ncn[nH]1,i,0.83,20,133,-1,x,103
COc1ccc(-c2cc(-c3nnc(COC(=O)c4ccc(O)cc4)o3)c3ccccc3n2)cc1OC,i,0.81,-5,38,-2,x,99

Reprinted from the part before: 5 entries, then new ones.
smiles,HSV augment,HSV augment primary fold,Insulin prom inh,Insulin prom inh cell count,PKD1 inh,GALR2 agonist,RGS16-Gao HTS
COc1cc(C(=O)NCc2nnc(SCC(=O)Nc3cc(C)on3)o2)cc(OC)c1OC,i,0.93,x,x,-4,x,99
O=S(=O)(c1ccc(N2CCOCC2)nc1)N(Cc1ccccn1)Cc1ccccn1,i,1.1,x,x,x,x,100
Cc1cc(-c2onc(C)c2C(=O)Nc2ccc(C(F)(F)F)cc2)no1,i,0.96,x,x,x,x,99
O=C(CSc1ncn[nH]1)CSc1ncn[nH]1,i,0.83,20,133,-1,x,103
COc1ccc(-c2cc(-c3nnc(COC(=O)c4ccc(O)cc4)o3)c3ccccc3n2)cc1OC,i,0.81,-5,38,-2,x,99
Cc1cnc(C(=O)Nc2ccccc2C(=O)N2CCOCC2)cn1,i,0.91,x,x,-1,-1.7,101
CN(CCO)c1nc(N)c2c(N)nc3c(c2c1C#N)CC(=O)N3C1CCCC1,i,1.1,31,101,-1,-1.3,101
NC(=O)c1ccc(-c2ncc(-c3ccccc3)o2)cc1,i,1.1,-82,156,6,0.3,107
O=C(Cc1ccc(Br)cc1)NC1CCSC1=O (centres undefined),i,0.9,12,114,-4,x,104
Cc1ccc(SCc2cn3c(C)csc3n2)cc1,i,0.96,42,83,-3,-0.8,96
Cc1ccc(C(=O)N[C@H](C(=O)OCC(=O)Nc2cccc(S(N)(=O)=O)c2)C(C)C)cc1,i,0.97,x,x,x,x,99
CC(Oc1ccccc1F)C(=O)NNC(=O)c1cc2ccccc2o1 (centres undefined),i,1,x,x,5,x,93
CCN(CC)C(=O)C(=O)Nc1ccc(F)c(Cl)c1,i,0.8,x,x,3,x,101
Cc1nnc(SCC(=O)NCc2ccc(F)cc2)[nH]c1=O,i,0.98,x,x,0,x,104
COC(=O)C1=C(CSc2nc3ccccc3s2)NC(=O)NC1c1ccc(F)cc1 (centres undefined),i,0.78,0,86,-9,-0.9,96
CCN/C=C(\C#N)S(=O)(=O)c1ccc(Br)cc1,i,0.95,x,x,x,x,98
NC(=O)c1c(NC(=O)C2CCCO2)sc2c1CCC2 (centres undefined),i,1.1,14,100,2,-0.4,93
CN(O)C(=O)Nc1ccc([N+](=O)[O-])cc1,i,1.1,x,x,-6,x,101
CSc1nc(C)c(Cc2c(F)cccc2Cl)c(=O)[nH]1,i,0.8,x,x,x,x,88
COc1ccccc1Nc1nnc(SCC(=O)N2CC(=O)Nc3ccccc32)s1,i,1.1,x,x,-2,-0.4,79
CC(C)(C)NC(=O)CN(Cc1ccc2c(c1)OCO2)C(=O)CNC(=O)c1cccs1,i,1.1,x,x,-4,x,121
O=C(O)CC(Cc1ccccc1)c1ccc2c(c1)OCO2 (centres undefined),x,x,-64,91,1,-1.3,105
COc1ccc(NC(=O)CSc2nc3ccsc3c(=O)n2Cc2ccccn2)c(OC)c1,i,0.79,21,142,4,x,100
Cc1cccc(-c2c3c(=O)n(C)c(=O)n(C)c3cn2C2CCCCC2)c1,i,0.69,-6,146,2,-1.2,105
NNC(=S)NCCc1ccccc1,i,1.1,12,60,1,x,102
O=S(=O)(c1cccs1)N1CN(Cc2ccccc2)c2nc3ccccc3nc21,i,0.98,19,111,7,-2.4,100
CC(C(=O)NCCCN1CCOCC1)n1cccc1C(=O)c1ccccc1 (centres undefined),i,1,-200,58,-14,-2.6,106
CCN(CC)c1ncnc2c1cnn2C,i,0.89,53,94,7,-0.2,99
CC(=O)c1cc(-c2ccccc2)[nH]c1N1CCOCC1,i,1.1,-3,141,1,-0.3,105
Oc1ccc2ccccc2c1CN1CCCC1,i,1.1,x,x,-4,x,96
COc1ccc(C(=O)Nc2cccnc2)cc1,i,0.89,29,94,-7,-3.2,98
CCCOc1ccc(/C(O)=C2/C(=O)C(=O)N(CCCOC)C2c2cccnc2)cc1 (centres undefined),i,0.96,38,136,-6,-0.1,97
CN(Cc1ccccc1)C(=O)CCNS(=O)(=O)c1ccc2c(c1)oc(=O)n2C,i,0.93,-54,127,1,-0.3,x
COc1cc(-c2cc(=O)c3c(O)c(OC)c(OC)c(OC)c3o2)cc(OC)c1OC,i,0.76,x,x,x,x,89
CCN(CC)CCNC(=O)Cn1nc(Cc2ccccc2)c2ccccc2c1=O,i,0.96,3,70,3,-2.8,66
Cc1csc(NC(=O)CCn2c(=O)sc3ccccc32)n1,i,0.94,x,x,2,0.5,102
C=CCn1c(-c2cccn(Cc3ccc(Cl)cc3)c2=O)n[nH]c1=S,i,0.85,x,x,-4,-1.4,96
C=CCC(NCc1ccco1)c1ccc(OC)cc1 (centres undefined),i,0.89,11,118,-6,-1.0,109
CCCCNc1nnc(CCn2nc(C)c(Br)c2C)s1,i,1,31,139,1,-1.0,109
CCc1ccc(-c2nc(CSCC(=O)N3CCN(c4ncccn4)CC3)c(C)o2)cc1,x,x,x,x,-11,-1.8,87
Cc1c(NC2=NC3(CCCCC3)Cc3ccccc32)c(=O)n(C)n1-c1ccccc1,i,0.84,-74,73,-2,-0.6,95
O=C(CCS(=O)(=O)c1cccc2nonc12)N1CCCc2ccccc21,i,1.1,-50,64,-5,0.6,172
CCn1cc(C(=O)NCc2cccnc2)c2cc(OC)c(OC)cc2c1=O,i,0.85,x,x,-8,-1.0,96
O=C(NCc1ccncc1)Nc1ccccc1F,i,0.95,-30,103,-4,x,107
O=C(NCCCCNC(=O)c1ccco1)c1ccco1,i,0.98,x,x,-1,-1.5,100
CC1(C)CC(c2nc(-c3ccc(Br)cc3)cs2)CCS1 (centres undefined),i,1,x,x,10,0.4,99
Cn1c(=O)[nH]c(=O)c2c1nc(NCCc1ccccc1)n2CC(O)COc1ccccc1 (centres undefined),i,0.95,-23,62,-16,-1.7,98
Oc1ccc(C(c2nnnn2C2CCCC2)N2CCc3ccccc3C2)cc1 (centres undefined),i,1.1,36,104,-2,-0.2,96
CC(C)(C)NC(=O)C(c1cccs1)N(Cc1cccs1)C(=O)c1csnn1 (centres undefined),i,1.1,x,x,7,x,90
COc1ccc2c(c1)[nH]c1c(=O)n(CC3CCCO3)cnc12 (centres undefined),i,0.88,-19,99,-2,0.6,98
